# Screening results deposited in PubChem by Johns Hopkins Ion Channel Center.
# KCNQ2 pot – potentiators of rat KCNQ2 potassium channel; O88943; CHO-K1 KCNQ2, FluxOR thallium flux fluorescence; active compounds read high; B-score at 10 µM; hit rate 0.54% among 310,000; AID 2239;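 active = fluorescence ratio B-score at least 3 SD of library B-scores, with initial fluorescence B-score within 3 SD, cut at about 5.3 in these data; same plate scores as AID 2156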;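 also: B-score of peak minus minimum over baseline fluorescence ratio after K+ and Tl+ stimulus; positive B-score means potentiation of KCNQ2 with more thallium influx and brighter signal; only the inactives scoring about 0 or higher are listed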
# Target sequence (O88943 whole entry, looked up): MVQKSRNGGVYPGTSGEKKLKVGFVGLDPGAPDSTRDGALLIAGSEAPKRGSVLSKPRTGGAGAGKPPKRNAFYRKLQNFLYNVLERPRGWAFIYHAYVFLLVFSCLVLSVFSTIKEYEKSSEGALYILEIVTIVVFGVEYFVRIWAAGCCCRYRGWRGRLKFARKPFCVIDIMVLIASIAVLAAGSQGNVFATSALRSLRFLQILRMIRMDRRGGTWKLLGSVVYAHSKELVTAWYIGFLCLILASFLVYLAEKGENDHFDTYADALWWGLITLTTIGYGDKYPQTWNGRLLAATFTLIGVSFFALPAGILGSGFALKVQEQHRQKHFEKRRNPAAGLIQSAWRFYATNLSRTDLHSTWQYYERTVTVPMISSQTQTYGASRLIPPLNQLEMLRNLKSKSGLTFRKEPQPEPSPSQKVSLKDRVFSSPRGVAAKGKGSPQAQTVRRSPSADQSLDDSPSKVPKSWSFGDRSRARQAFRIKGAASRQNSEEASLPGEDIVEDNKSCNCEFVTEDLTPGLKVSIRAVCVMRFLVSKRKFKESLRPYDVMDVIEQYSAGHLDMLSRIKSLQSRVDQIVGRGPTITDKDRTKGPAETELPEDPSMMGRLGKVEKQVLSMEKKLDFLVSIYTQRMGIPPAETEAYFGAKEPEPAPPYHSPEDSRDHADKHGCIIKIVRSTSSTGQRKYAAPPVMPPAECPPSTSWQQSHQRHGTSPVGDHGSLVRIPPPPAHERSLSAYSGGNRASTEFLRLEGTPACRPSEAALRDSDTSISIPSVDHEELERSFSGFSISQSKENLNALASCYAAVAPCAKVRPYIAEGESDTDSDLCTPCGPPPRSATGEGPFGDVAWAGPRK
# KCNQ2 pot baseline – further read-out of KCNQ2 pot, marked with its call; B-score; compound at 10 µM; measured here: initial fluorescence intensity artifact check;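 brightness before thallium and not channel activity; 0 = typical well and far values either way flag optical interference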
# * hit, by the source's call. An excerpt; count on the stated rates, not on these rows.
# Each structure is followed by: KCNQ2 pot, KCNQ2 pot baseline
CCCCC1=CC2=CC(=O)C(C)(OC(=O)CC)C(=O)C2=CN1CCOC (stereo not drawn)
→ 0.94, 0.68
CCn1c(CCC(=O)Nc2nc3c(s2)CCCC3)nc2cc(S(=O)(=O)N(C)C)ccc21
→ 1.1, -1.3
O=S(=O)(c1ccc2nc(N3CCN(c4ccc(F)cc4)CC3)ccc2c1)N1CCCCC1
→ 0.01, 1.1
O=C(CCl)Nc1cc(SCC(O)CO)cc([N+](=O)[O-])c1 (stereo not drawn)
→ 1.9, 0.02
Cc1sc(-c2ccccn2)nc1OC(=O)c1ccc(Cl)cc1
→ 1.8, -0.17
COc1cccc(C(=O)OCC(=O)NCCNC(=O)COC(=O)c2cccc(OC)c2OC)c1OC
→ 0.87, -0.4
CCOc1cc(/C=N/n2c(C)nc3ccccc3c2=O)ccc1O
→ 0.42, 0.05
C/C(=N\NC(=O)c1cccnc1)c1cc(C)oc1C
→ 0.03, 1.6
CC(C)Oc1cccc(C(=O)N2CCCC2)c1
→ 0.04, -0.3
NS(=O)(=O)c1ccc(Sc2ccccn2)c([N+](=O)[O-])c1
→ 1, 0.66
Cc1ncsc1C(=O)Nc1nc2c(s1)CC(C)CC2 (stereo not drawn)
→ 0.12, 0.34
CCN(C(=O)Cc1c(C(=O)O)n(C)c2ccccc12)c1cc(OC)ccc1OC
→ 1.7, -1.3
COc1cc(CN2CCN(c3cccc(C)c3C)CC2)cc(Br)c1O
→ 1, 2.5
O=c1cc(N2CCc3ccccc32)[nH]c(=O)n1-c1ccccc1Cl
→ 0.4, 0.25
COC(=O)CSc1ncnc2c1sc1nc(N3CCOCC3)c3c(c12)CCCC3
→ 0.47, -0.11
COC(=O)NC1CSCC1OC(=O)CCN1C(=O)c2ccccc2C1=O (stereo not drawn)
→ 0.48, 1.5
CC(=O)Nc1c2c(nn1-c1cccc(C)c1)CSC2
→ 0.22, 0.53
CCCCCC1CCC(c2nnc(SCC(C)=O)o2)CC1 (stereo not drawn)
→ 1.6, -1.6
C=CCN(c1ccccc1C(=O)O)S(=O)(=O)c1ccc(C)cc1
→ 0.15, -0.42
CCOc1ccc(-n2ccnc2SCC(=O)NCc2ccc3c(c2)OCO3)cc1
→ 0.81, 0.9
Nc1nc2c(s1)CC(c1ccccc1)CC2 (stereo not drawn)
→ 1.1, -1.3
Cc1ccc(S(=O)(=O)NC(Cc2ccc(Cl)cc2)C(=O)O)cc1 (stereo not drawn)
→ 1.6, -0.51
Cc1csc(NC(=O)C2CCN(C(=O)CSc3nnc(C)n3Cc3ccccc3)CC2)n1
→ 1.6, 0.19
Cc1occc(=O)c1OCc1ccc(F)cc1
→ 0.01, -1.2
CN(CCOc1ccccc1)C(=O)c1ccc(OC2CCN(C(=O)C3CC3)CC2)cc1
→ 0.52, 0.6
CCn1c(SCC(=O)Nc2ccc3c(c2)OCCO3)nnc1-c1ccncc1
→ 1.5, 1.6
O=C1NC2=C(C(=O)CCC2)C(c2cccc([N+](=O)[O-])c2)N1 (stereo not drawn)
→ 0.03, -1.4
CSc1cccc(NC(=O)CN(c2cccc(C)c2)S(C)(=O)=O)c1
→ 2.1, -2.2
CCOC(=O)Cc1nnc(Nc2cccc(C)c2)c2ccccc12
→ 0.12, 0.73
O=C(Nc1ccc(OC(F)(F)F)cc1)Nc1cccc([N+](=O)[O-])c1
→ 0.16, 0.12
CN(CC(=O)Nc1ccc(N2CCOCC2)cc1)C(=O)CCCOc1ccc(Cl)cc1Cl
→ 1.2, 0.57
Cc1ccc(S(=O)(=O)N2CCC(C(=O)NNC(=O)c3ccncc3)CC2)cc1
→ 0.84, -0.25
O=C(CN1CCN(Cc2ccccc2Cl)CC1)N/N=C/c1cccs1
→ 0.67, 0.06
O=C(NCc1ccc2c(c1)OCO2)c1cc(-c2ccccc2)nn1CC1CC(c2cccnc2)=NO1 (stereo not drawn)
→ 0.41, 2.5
Cc1ccc(C(=O)Nc2nc(-c3ccccc3)c(-c3ccccc3)o2)cc1
→ 8.4*, -0.23*
CCCN(CCC)S(=O)(=O)c1ccc(NC(=O)c2cc(C(=O)OC)cc([N+](=O)[O-])c2)cc1
→ 0.41, 0.62
O=C1CSC(c2ccccn2)N1c1ccccc1 (stereo not drawn)
→ 0.47, -0.05
CCCN1C=CC(=C/C=C(\C#N)C(=O)OCC)C=C1
→ 1.6, -0.13
O=C(C1=C(O)C(=O)N(CCc2ccccc2)C1c1cccnc1)c1ccco1 (stereo not drawn)
→ 0.83, -0.27
COc1ccccc1OCCNC(=O)C1CCN(C(C)=O)CC1
→ 0.17, 1.9
CCC(=O)c1ccc(OCC(O)CNCc2ccc(F)cc2)cc1 (stereo not drawn)
→ 0.66, 1.1
S=C(NCC1CCCCC1)Nc1cccnc1
→ 1.5, 0.01
COc1ccc(C2CC(=O)c3cnn(-c4nc(C)cc(C)n4)c3C2)cc1OC (stereo not drawn)
→ 0.22, 1.3
COc1cccc(/C=C/c2nc3c(cnn3-c3ccccc3)c(=O)[nH]2)c1
→ 0.32, 0.78
Cc1cccc(NC(=O)CSc2nc3c(c(=O)[nH]2)CCCC3)c1C
→ 0.27, -2.2
Clc1ccc(-c2nnc(-c3ccccc3)o2)cn1
→ 0.05, -0.73
C=CCSc1nc2c(c(=O)[nH]1)C(C(C)C)C(C#N)=C(N)O2 (stereo not drawn)
→ 1.2, -0.91
Cc1cc2c(SCC(=O)NCC3CCCO3)ncnc2s1 (stereo not drawn)
→ 1.8, 0.12
COc1ccc(N2CC(C(=O)NCCc3ccc(OC)c(OC)c3)CC2=O)cc1 (stereo not drawn)
→ 0.6, 2.5
COc1ccc(OC)c(S(=O)(=O)N2CCC(C(=O)N3CCN(c4ccc(F)cc4)CC3)CC2)c1
→ 0.85, -0.76
Cc1ccc(OCc2nnc(SCC(=O)NC3CCCCC3)n2C)cc1
→ 0.14, 0.19
COc1ccc(C2NC(=O)NC(C)=C2C(=O)OCC2CCCCC2)cc1OC (stereo not drawn)
→ 2.9, -0.58
O=C(NCCCCNC(=O)c1cccnc1)c1cccnc1
→ 0.58, -0.81
COc1cccc(N(CC(=O)NCC2CCCO2)C(=O)CCC(=O)Nc2nccs2)c1 (stereo not drawn)
→ 0.35, -0.7
Cc1ccc(S(=O)(=O)/N=C(/Nc2nc(C)cc(C)n2)N2CCOCC2)cc1
→ 0.96, -1.6
COc1ccc2c(c1)c(C(C)=O)c(C)n2CCc1ccccc1
→ 0.07, -0.03
CC(=O)Nc1c2c(nn1-c1ccc(C)cc1)CSC2
→ 0.97, 0.3
O=C(CCCc1nc2ccccc2s1)N1CCN(c2ccccc2F)CC1
→ 0.1, 1.2
CCCNS(=O)(=O)c1ccc(OCC(=O)NCc2ccco2)cc1
→ 1.2, 0.75
CCCn1ncc(CN2CCN(CCc3ccccc3)C(CCO)C2)c1C (stereo not drawn)
→ 0.3, 1.1

# Copied from the results shown (4 entries):
# Each structure is followed by: KCNQ2 pot, KCNQ2 pot baseline
Cc1cccc(NC(=O)CSc2nc3c(c(=O)[nH]2)CCCC3)c1C
→ 0.27, -2.2
Clc1ccc(-c2nnc(-c3ccccc3)o2)cn1
→ 0.05, -0.73
C=CCSc1nc2c(c(=O)[nH]1)C(C(C)C)C(C#N)=C(N)O2 (stereo not drawn)
→ 1.2, -0.91
Cc1cc2c(SCC(=O)NCC3CCCO3)ncnc2s1 (stereo not drawn)
→ 1.8, 0.12

# Continuation:
# Each structure is followed by: KCNQ2 pot, KCNQ2 pot baseline
COc1ccc(CCNC(=O)C2CC(=O)N(CCc3ccccc3)C2)cc1OC (stereo not drawn)
→ 0.3, 1.4
CCOP(=O)(OCC)C(NC(=O)c1ccc(OC)cc1)c1ccccc1 (stereo not drawn)
→ 0.55, 0.81
N#C/C(=C\c1ccc(O)c(Br)c1)C(=O)N1CCCCC1
→ 2.4, -0.46
OC1CCC(NC(=S)Nc2ccc(SC(F)F)cc2)CC1 (stereo not drawn)
→ 0.07, -1
CCc1cc2ccc(C)c(C)c2nc1SCC(=O)Nc1cc(C)on1
→ 1.1, 2.1
CCOC(=O)C[C@H]1c2cc(F)ccc2S(=O)(=O)N1c1ccccc1
→ 0.43, -0.63
CCOc1ccc(NC(=S)N2CCN(C/C=C/c3ccccc3)CC2)cc1
→ 3.7, 2.3
CN(Cc1ccccc1)Cc1c(F)cccc1F
→ 6.6*, 0.3*
CCc1nnc(NC(=O)c2cccc(S(=O)(=O)N3CCCCC3)c2)s1
→ 1.3, -0.35
Cc1ccc(S(=O)(=O)N(C)C)cc1NC(=O)C(C)N(C)Cc1sccc1C (stereo not drawn)
→ 0.03, -2
O=C(NC1CCCC1)c1ccc(CS(=O)(=O)Cc2ccccc2Cl)o1
→ 1.2, -1.2
CSc1nnc2c(n1)OC(C)=Nc1ccccc1-2
→ 0.03, -0.04
COC(=O)c1ccc(NC(=O)CNC(=O)C2CCCCC2)cc1
→ 1, -0.48
COc1ccc(OC)c(/C=N\NC(=O)c2c(C)nc3cc(C)ccn23)c1
→ 0.53, -0.52
O=C1NC(c2ccccc2)(C(F)(F)F)C(=O)N1Cc1cccnc1 (stereo not drawn)
→ 0.85, 1.4
CC1=C(C(=O)N2CCOCC2)C(c2c(F)cccc2F)NC(=O)N1 (stereo not drawn)
→ 0.55, -0.06
CCN(CC)CCNc1nc(SC)nc2sc3c(c12)CCN(C)C3
→ 0.36, 0.55
O=C(N/N=C/c1ccco1)c1cc(-c2ccncc2)nc2ccccc12
→ 0.78, 1.1
[O-]C1=N/[N+](=C/c2ccccc2)CC1
→ 0.82, 0.47
COC(=O)c1sc(NC(C)=O)c(C(=O)OC)c1C
→ 1.3, 0.77
COc1ccc(OC)c2c1sc(=NC(=O)C(C)(C)C)n2C
→ 0.12, 0.06
O=C(CN1CCN(c2ccccc2)CC1)Nc1ccc(-n2cnnn2)cc1
→ 0.08, 0.52
Cc1sc2ncnc(N3CCN(S(=O)(=O)c4ccc(F)cc4)CC3)c2c1C
→ 0.09, -2.1
CC(C)(C)c1cc(N)n2nc(C(C)(C)C)cc2n1
→ 0.19, 0.91
Cc1cccc(C)c1NC(=O)c1ccc([N+](=O)[O-])s1
→ 0.04, 0.44
Cc1ccc(-n2c(C)cc(/C=N/NC(N)=S)c2C)cc1
→ 0.15, -0.43
N#Cc1c(NC(=O)CN2CCCCC2)sc2c1CCC2
→ 2.4, -0.14
Cc1ccc(S(=O)(=O)CC(=O)Nc2ccc(S(=O)(=O)Nc3ccccn3)cc2)cc1
→ 0.24, -0.36
Cc1cc[n+](CC2OCc3ccccc3CO2)cc1
→ 0.68, -1.2
Cn1c(SCC(=O)C(C)(C)C)nnc1-c1ccncc1
→ 1.1, 0.91
COC(=O)c1ccccc1NC(=O)C1CC(=O)N(c2ccc(C)c(C)c2)C1 (stereo not drawn)
→ 1.9, -0.05
CN(C(=O)CSc1nnc(Nc2ccccc2)s1)c1c(N)n(Cc2ccccc2)c(=O)[nH]c1=O
→ 1.4, 1.4
COc1nc(NCc2cccnc2)nc(OC)n1
→ 0.17, -0.29
CCCCOC(=O)c1ccc(N2C(=O)CC(N3CCN(C/C=C/c4ccccc4)CC3)C2=O)cc1 (stereo not drawn)
→ 1, -3
COc1cc(OC)c(S(=O)(=O)NCc2ccco2)cc1S(=O)(=O)NCc1ccco1
→ 0.02, 0.67
O=C(NNS(=O)(=O)c1ccc2ccccc2c1)C1CCN(Cc2ccccc2)CC1
→ 0.93, 1.4
CCOC(=O)C1=C(C)NC(SCC(N)=O)=C(C#N)C1c1cccs1 (stereo not drawn)
→ 1, 0
Cc1cc(C)nc(N2C(=O)CC(C(=O)O)NC2=NCCc2c[nH]c3ccccc23)n1 (stereo not drawn)
→ 0.22, -1.7
CCOC(=O)Cc1nc(-c2cccc(C(F)(F)F)c2)no1
→ 0.33, -1.5
CN(C)C=NC(=O)c1cc(C(=O)c2ccccc2)c[nH]1
→ 0.07, -0.31
Brc1ccc(-c2nnc(-c3ccco3)o2)cc1
→ 0.45, -0.2
Cc1ccccc1NC(=O)Cc1nc(COC(=O)CSc2ccccc2)cs1
→ 1, 0.01
O=C(Cc1cccs1)NCCN1CCOCC1
→ 1.6, 1.4
CCOc1ccccc1NC(=O)N1CCCC(c2nc(-c3ccc(C)o3)no2)C1 (stereo not drawn)
→ 0.04, -0.94
CC(=O)Nc1sc(N/N=C\c2ccco2)nc1-c1cccs1
→ 0.01, -0.09
C=CCNC(=S)NNc1nc(N2CCCC2)nc(N2CCCC2)n1
→ 5, 0.73
O=C(Cc1ccc([N+](=O)[O-])cc1)Nc1cccc(C(F)(F)F)c1
→ 0.4, -0.63
CC1CCN(S(=O)(=O)c2cn(CC(=O)Nc3ccc(C#N)cc3)cn2)CC1
→ 0.8, 0.42
Cc1ccc(S(=O)(=O)c2ccc(Cl)cc2)cc1S(=O)(=O)N1CCN(C)CC1
→ 1.3, -0.17
CCC(CC)C(=O)NCCc1ccc(F)cc1
→ 0.27, 2.3
COc1ccccc1NC(=O)CSC1CC(=O)N(c2ccc3c(c2)OCO3)C1=O (stereo not drawn)
→ 2, -1.1
FC(F)(F)c1ccnc(Oc2ccc(C3=NCCS3)cc2)c1
→ 0.08, 1.4
O=C(NCc1cccnc1)c1ccccc1NC(=O)c1c(F)cccc1F
→ 0.09, -0.07
COC(=O)CSc1[nH]c2ccc(F)cc2c1[N+](=O)[O-]
→ 6.4*, 2.4*
O=S(=O)(c1ccc(F)cc1)n1ccc(-c2cccc(OCc3ccc(Cl)cc3Cl)c2)n1
→ 0.35, -0.18
O=C(CN1C(=O)CSc2ccc(C(F)(F)F)cc21)Nc1ccccc1
→ 1.5, 0.22
O=S(=O)(c1cccs1)N1CCc2ccccc2C1
→ 0.02, 0.9

# Retrieved one by one from above:
# Each structure is followed by: KCNQ2 pot, KCNQ2 pot baseline
COC(=O)c1ccccc1NC(=O)C1CC(=O)N(c2ccc(C)c(C)c2)C1 (stereo not drawn)
→ 1.9, -0.05
O=S(=O)(c1cccs1)N1CCc2ccccc2C1
→ 0.02, 0.9
O=C(Cc1cccs1)NCCN1CCOCC1
→ 1.6, 1.4
